Screening data (PubChem BioAssay)
KCNQ2 pot: potentiators of rat KCNQ2 potassium channel; CHO-K1 KCNQ2, FluxOR thallium flux fluorescence; hits give high values; 310,000 tested, 0.54% active; B-score at 10 µM; Potassium voltage-gated channel subfamily KQT member 2 (Rattus norvegicus), O88943;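 active = fluorescence ratio B-score at least 3 SD of library B-scores, with initial fluorescence B-score within 3 SD, cut at about 5.3 in these data; same plate scores as AID 2156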;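 note: B-score of peak minus minimum over baseline fluorescence ratio after K+ and Tl+ stimulus; positive B-score means potentiation of KCNQ2 with more thallium influx and brighter signal; only the inactives scoring about 0 or higher are listed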
Target sequence (O88943 whole entry, looked up): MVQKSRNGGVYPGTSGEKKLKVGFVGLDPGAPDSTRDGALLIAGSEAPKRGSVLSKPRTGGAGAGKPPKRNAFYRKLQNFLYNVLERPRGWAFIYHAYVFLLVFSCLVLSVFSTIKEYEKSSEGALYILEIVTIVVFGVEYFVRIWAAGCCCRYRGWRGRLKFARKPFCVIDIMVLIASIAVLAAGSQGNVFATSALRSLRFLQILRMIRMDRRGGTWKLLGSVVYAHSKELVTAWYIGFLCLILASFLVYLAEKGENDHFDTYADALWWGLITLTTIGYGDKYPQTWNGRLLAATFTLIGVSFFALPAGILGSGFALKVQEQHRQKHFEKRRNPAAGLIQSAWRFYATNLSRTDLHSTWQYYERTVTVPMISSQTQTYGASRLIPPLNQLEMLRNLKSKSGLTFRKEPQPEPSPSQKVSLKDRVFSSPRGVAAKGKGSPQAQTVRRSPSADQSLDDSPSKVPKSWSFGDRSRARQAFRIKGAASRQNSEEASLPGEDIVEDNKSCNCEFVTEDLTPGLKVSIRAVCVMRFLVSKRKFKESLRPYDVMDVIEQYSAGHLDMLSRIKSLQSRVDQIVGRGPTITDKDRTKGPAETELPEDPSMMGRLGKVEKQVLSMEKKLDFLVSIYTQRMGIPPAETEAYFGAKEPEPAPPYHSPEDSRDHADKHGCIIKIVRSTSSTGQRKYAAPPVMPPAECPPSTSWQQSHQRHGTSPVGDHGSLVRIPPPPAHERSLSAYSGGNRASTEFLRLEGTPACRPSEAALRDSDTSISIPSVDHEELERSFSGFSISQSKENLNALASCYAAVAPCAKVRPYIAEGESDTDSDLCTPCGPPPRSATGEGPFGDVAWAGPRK
KCNQ2 pot baseline: recorded beside KCNQ2 pot, whose call it bears; B-score; compound at 10 µM; measured here: initial fluorescence intensity artifact check;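 brightness before thallium and not channel activity; 0 = typical well and far values either way flag optical interference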
An asterisk follows results filed as active. Only part of the results is shown; rates above refer to the full screens.

item	Compound	KCNQ2 pot	KCNQ2 pot baseline
1	c1ccc(-c2cc(-c3ccccc3)ncn2)cc1	0.22	-0.6
2	COc1cccc(C(=O)Nc2nc(-c3ccc(S(=O)(=O)N4CCOCC4)cc3)cs2)c1	3.32	0.67
3	Cc1ccc(NC(=O)c2ccc(NC(=O)c3ccccc3)cc2)cc1C	0.57	-0.37
4	O=C1CCC(=O)N1CCSC(=S)N1CCSCC1	0.36	-2.04
5	C/C(Cn1cnc([N+](=O)[O-])n1)=N\NC(=O)c1ccncc1	0.17	1
6	COc1cc(OC)c(NC(=O)/C=C/C(=O)O)cc1Cl	1.26	0.46
7	CN(C(=O)c1ccc([N+](=O)[O-])cc1)c1ccccc1C(=O)NCc1ccccc1	0.07	-0.06
8	Cc1[nH]c2ccccc2c1C(Nc1nccs1)c1ccncc1 (centres undefined)	0.95	0
9	CC(C)CC(OC(=O)c1cccs1)C(=O)NCc1cccs1 (centres undefined)	2.45	1.82
10	COc1ccc(C(=O)Nc2ccc(-c3ccc(C)o3)cc2)cc1S(=O)(=O)N1CCOCC1	0.29	-1.25
11	CSc1ccc(CNc2ccc(C)cc2)cc1	0.7	0.86
12	O=C1CC(NCc2ccc(F)cc2)C(=O)N1c1ccccc1 (centres undefined)	0.54	-0.37
13	Cc1cc(C)n(C(=O)C(C)n2nc([N+](=O)[O-])c(Br)c2C)n1 (centres undefined)	0.02	1.45
14	CC(=O)c1c(N2CCOCC2)nc(=S)n(Cc2ccccc2)c1C	0.06	-0.07
15	O=C(Nc1c[nH]c(=O)[nH]c1=O)c1cccc(F)c1	0.29	0.12
16	CCCCc1ccc(NC(=S)N2CCN(c3ccccn3)CC2)cc1	0.65	0.18
17	O=C(Nc1sc2c(c1C(=O)O)CCC2)C(=O)N1CCOCC1	0.12	2.44
18	CC1=C(C(=O)NCc2ccccc2)C(c2cccnc2)n2ncnc2N1 (centres undefined)	1.27	0.77
19	Cc1cccc(C(=O)N/N=C/c2ccoc2)c1	1.17	-0.09
20	Cc1[nH]oc(=O)c1N=Nc1c(Cl)cccc1Cl	1.97	-0.1
21	CCOc1cc(CNc2ccc3c(c2)CCC3)ccc1OC	0.51	0.05
22	O=C(CCC(=O)N(CC(=O)NC1CCCC1)Cc1ccccc1Cl)Nc1nccs1	0.06	0
23	COc1ccccc1OCCSc1nnc(C)n1-c1ccccc1	1.1	-0.13
24	CCC1CCCN1Cn1cnc2c([nH]c3ccc(C)cc32)c1=O (centres undefined)	0.12	-2.31
25	CCN(CC)S(=O)(=O)c1ccc(C(=O)OCC(=O)N2CCN(C(=O)c3ccco3)CC2)cc1	0.52	0.07
26	Cc1cc(C)n2nc(C(=O)N/N=C/c3cccs3)nc2n1	2.17	-2.5
27	COc1ccc(Nc2nc(N)c([N+](=O)[O-])c(N3CCCC3)n2)cc1	0.17	0.68
28	O=C1c2ccccc2C(O)(c2ccccc2)N1c1ccncc1 (centres undefined)	0.65	1.3
29	CC(=O)C1=C(C)Nc2ncnn2C1c1ccccc1 (centres undefined)	0.87	1.58
30	CCOCCCNCc1ccc(OC)cc1	0.79	-0.43
31	O=S(=O)(c1ccc(Cl)cc1)N1CCN(Cc2ccncc2)CC1	0.05	-1.01
32	COc1cccc(/C=N\NC(=O)c2sc(N)nc2C)c1OC	2.13	-0.01
33	CC(=O)Nc1c(C(=O)N2CCN(c3ccccn3)CC2)cnn1-c1ccc(C)cc1	0.31	-0.6
34	NC(=O)Cn1c(S(=O)(=O)Cc2ccccc2)nc2ccccc21	0.89	-0.58
35	Cc1oc(-c2ccccc2)nc1C(=O)OCC(=O)NC(=O)NCC(C)C	1.23	-0.94
36	O=C(c1cccc(S(=O)(=O)NCCOc2ccccc2)c1)N1CCN(c2ncccn2)CC1	0.64	-1.11
37	O=C(Nc1cccc(F)c1)c1ccc(CSc2ccccc2)o1	0.39	0
38	O=C(O)C[C@H]1c2ccccc2S(=O)(=O)N1C1CCCC1	0.99	-0.99
39	Cc1ccc2c(c1)N(C(=O)CCC(=O)N1CCC(C(N)=O)CC1)CCO2	0.02	1.34
40	Cc1ccc(S(=O)(=O)N2CCN(C(=O)c3cc(S(=O)(=O)N(C)C)ccc3N3CCCC3)CC2)cc1	0.27	0.67
41	O=C1CC(N2CCC(C(=O)N3CCCCC3)CC2)C(=O)N1 (centres undefined)	1.86	0.1
42	Cc1c(Cc2ccccc2)sc(NC(=O)Cc2ccccc2)c1C(N)=O	1.24	0.4
43	COc1ccccc1-n1c(SCC(=O)N2CCCC2)nc2cccnc21	0.69	-0.14
44	CCOc1ccc(CCNC(=O)Nc2ccccc2)cc1OCC	0.41	-0.47
45	CNCc1c(OCc2ccccc2F)ccc2ccccc12	2.07	0.02
46	O=C(O)c1ccc(Cl)c(S(=O)(=O)Nc2cccc(C(=O)Nc3cccc(C(F)(F)F)c3)c2)c1	0.17	0.01
47	CCOC(=O)CN=C/C(C(=O)Nc1nccs1)=C(/C)O	1.34	1.32
48	CCOC(=O)c1sc(NC(=O)CSc2nc(-c3ccco3)cc(C(F)(F)F)n2)c(C#N)c1C	0.54	-1.5
49	Cc1nnc(N/N=C/c2ccc(O)c([N+](=O)[O-])c2)[nH]c1=O	1.33	-1.45
50	C=C1CCN([C@@H](C)C(=O)NCc2ccc(Cl)cc2)S(=O)(=O)c2ccccc21	0.5	1.71

More compounds follow.
item	Compound	KCNQ2 pot	KCNQ2 pot baseline
51	CCC(C)NC(=O)CCCCCn1c(=O)[nH]c2cc(OC)c(OC)cc2c1=O (centres undefined)	1.2	-0.05
52	O=[N+]([O-])c1cc(S(=O)(=O)Nc2ccccc2)ccc1NCc1cccnc1	2.85	1.18
53	CCOC(=O)c1c(C)[nH]c(C)c1C(=O)CSc1ncccn1	0.03	-2.14
54	CC(C)CN(C(=O)c1ccc(N2CCCC2=O)cc1)C1CCS(=O)(=O)C1 (centres undefined)	1.39	0.22
55	Oc1c(Br)cc(Br)cc1CNc1cccc2cccnc12	8.76*	-0.01*
56	COc1ccc(CC(NC(C)=O)C(=O)NC2CCN(S(=O)(=O)c3ccc(NC(C)=O)cc3)CC2)cc1OC (centres undefined)	0.36	-1.27
57	C=CCOC(=O)C1=C(C)NC(=O)NC1c1ccc(Cl)cc1 (centres undefined)	1.3	-0.42
58	COc1ccc(OCC(=O)OCCNC(=O)c2cccnc2)cc1	0.15	0.31
59	Cc1ccc(-n2c(SCC(=O)O)nc3sc4c(c3c2=O)C(C)CCC4)cc1 (centres undefined)	0.43	-2.78
60	O=C1/C(=C/c2ccccc2)SC(=S)N1C1CCS(=O)(=O)C1 (centres undefined)	0.38	1.09
61	COc1ccc(N(CC(=O)NCCSCc2cccc(Cl)c2)S(C)(=O)=O)cc1Cl	1.51	-0.85
62	C=CCn1cccc(C(=O)Nc2ccc(OC)c(OC)c2)c1=O	2.41	0.86
63	CCOC(=O)C1CCCN(c2ccc(NC(=O)c3snc4c(=O)[nH]c(C)nc34)cc2)C1 (centres undefined)	0.1	-0.01
64	O=[N+]([O-])c1ccc(Oc2ccc(F)cc2Br)c2ccncc12	1.11	1.18
65	[O-][n+]1onc2c1CCc1nnccc1-2	1.15	-0.52
66	CS(=O)(=O)Oc1ccc2c(c1)O/C(=C\c1cccc([N+](=O)[O-])c1)C2=O	0.17	-1.04
67	Cc1cccc(NS(=O)(=O)c2ccc(C(=O)N3CC(C)OC(C)C3)cc2)c1C (centres undefined)	0.32	-0.02
68	O=C(CCCn1c(=O)oc2ccccc21)Nc1cccnc1	0.95	0.03
69	COCCOC1CCN(C(=O)c2ccc(OC)c(OC3CCN(C(C)C)CC3)c2)CC1	0.25	0.2
70	O=C(Nc1ccc(Nc2ccccc2)cc1)C(Cl)(Cl)Cl	0.08	0.21
71	COc1ccc(OC)c(C=Nc2ccccc2-c2nc3ccccc3[nH]2)c1	1.38	-0.94
72	COC(=O)c1oc2ccc(Br)cc2c1NC(=O)c1ccccc1	0.94	-0.47
73	CCCNS(=O)(=O)c1ccc(Oc2ncc(C(F)(F)F)cc2Cl)cc1	0.16	-3.3
74	O=C(NCc1cccnc1)c1cccc(NS(=O)(=O)c2ccc(Br)cc2)c1	0.09	1.41
75	O=C(Nc1ccc(O)cc1)c1ccc(NC(=O)C2CCCO2)cc1 (centres undefined)	1.16	-0.72
76	Cc1ccccc1NC(=O)C(=O)c1cn(C)c2ccccc12	1.3	0.5
77	O=C(c1cccnc1)N1CCN(S(=O)(=O)c2ccc(S(=O)(=O)N3CCCC3)cc2)CC1	0.71	-0.24
78	O=C(CSc1ccccc1)N[C@@H](Cc1ccccc1)C(=O)O	1.05	-0.9
79	CCOC(=O)C1C(c2ccc(O)c(OC)c2)NC(=S)NC1(O)C(F)(F)F (centres undefined)	0.55	0.02
80	CC(C)CCNC(=O)C1CCCN(S(=O)(=O)c2ccc(F)cc2)C1 (centres undefined)	0.97	-0.05
81	O=C(COC(=O)c1cc([N+](=O)[O-])ccc1N1CCOCC1)Nc1cccc(F)c1	0.57	-0.71
82	O=C(Nc1ccc(N2CCN(C(=O)c3ccccc3)CC2)cc1)c1cccs1	0.02	-2.36
83	Cc1cc(S(=O)(=O)Nc2ccc3ccccc3c2)c(C)s1	0.87	0.72
84	CCNc1nc(NCC)nc(SCC(C)=O)n1	0.07	0.54
85	Cc1ccc(C(=O)Cn2cc([N+](=O)[O-])nc2C)cc1	1.18	-0.14
86	CCOc1ccc(CCNC(=O)CCn2nc(C)c3c(C)n(-c4ccccc4)nc3c2=O)cc1	0.69	-0.31
87	N#CC1=C(N)Oc2n[nH]c(-c3cccnc3)c2C1c1cc(F)ccc1F (centres undefined)	0.18	0.57
88	CC(=O)Nc1ccc(Oc2cnc3ccccc3n2)cc1	1.65	1.77
89	Cc1cccc(NC(=O)NCC(c2ccco2)N2CCCCC2)c1 (centres undefined)	1.3	-0.38
90	CCOC(=O)c1cnn(-c2cc(Oc3cccc(C)c3)ncn2)c1N	0.64	-0.45
91	Cc1nn(Cc2ccccc2)c(C)c1NC(=O)c1cc(-c2ccc3c(c2)OCO3)on1	0.17	0.6
92	CCOc1ccc(-c2cccc(NC(=O)COc3ccc(Cl)cc3)c2)nn1	0.27	0.77
93	CC(=O)Nc1ccc(SC(C)C(=O)NC2CCCC2)cc1 (centres undefined)	1.49	-0.72
94	CCOc1ccc(NS(=O)(=O)c2ccc(C(=O)N(C)CCc3ccc(OC)c(OC)c3)cc2)cc1	1.47	0.69
95	COc1ccccc1CNC(=O)C1CC2Cn3c(nc4cc(C)c(C)cc43)C2N1C (centres undefined)	0.38	-0.52
96	COc1ccc(N(C(=O)C(C)C)S(=O)(=O)c2ccc(Cl)cc2)cc1	0.33	-1.23
97	CC(=O)Nc1ccc(NC(=O)COC(=O)C2c3ccccc3Oc3ccccc32)cc1	0.01	-1.69
98	O=C(NN1C(=O)C2C3c4ccccc4C(c4ccccc43)C2C1=O)c1ccccc1 (centres undefined)	0.79	0.47
99	CCn1c(SCC(=O)Nc2ccc3c(c2)OCO3)nc2c1c(=O)n(C)c(=O)n2C	0.09	-1.85
100	O=C(CN(c1ccc2c(c1)OCCO2)S(=O)(=O)c1ccccc1)Nc1ccc2c(c1)OCO2	0.83	-0.39

Complete entries as entered above. Values in the order: KCNQ2 pot | KCNQ2 pot baseline
Profile of CCOc1ccc(NS(=O)(=O)c2ccc(C(=O)N(C)CCc3ccc(OC)c(OC)c3)cc2)cc1 → 1.47 | 0.69
Profile of CCOC(=O)C1C(c2ccc(O)c(OC)c2)NC(=S)NC1(O)C(F)(F)F (centres undefined) → 0.55 | 0.02
Profile of CCOc1ccc(-c2cccc(NC(=O)COc3ccc(Cl)cc3)c2)nn1 → 0.27 | 0.77
Profile of O=C(COC(=O)c1cc([N+](=O)[O-])ccc1N1CCOCC1)Nc1cccc(F)c1 → 0.57 | -0.71
Profile of N#CC1=C(N)Oc2n[nH]c(-c3cccnc3)c2C1c1cc(F)ccc1F (centres undefined) → 0.18 | 0.57

Some values from the list.
KCNQ2 pot baseline with `CC(=O)Nc1ccc(Oc2cnc3ccccc3n2)cc1` : 1.77
KCNQ2 pot baseline with `COc1ccc(N(C(=O)C(C)C)S(=O)(=O)c2ccc(Cl)cc2)cc1` : -1.23
KCNQ2 pot with `CCOc1ccc(NS(=O)(=O)c2ccc(C(=O)N(C)CCc3ccc(OC)c(OC)c3)cc2)cc1` : 1.47
KCNQ2 pot with `O=C(Nc1ccc(N2CCN(C(=O)c3ccccc3)CC2)cc1)c1cccs1` : 0.02
KCNQ2 pot baseline with `CCOc1ccc(-c2cccc(NC(=O)COc3ccc(Cl)cc3)c2)nn1` : 0.77

Next entries:
item	Compound	KCNQ2 pot	KCNQ2 pot baseline
101	CC1CC(C)CN(c2nc3c(c(=O)n(C)c(=O)n3C)n2C)C1 (centres undefined)	1.16	-0.55
102	Cc1ccc(C(=O)N2CC=C(c3ccccc3)CC2)o1	1.17	-0.35
103	Cc1c(OC(C)C(=O)NCCCN2CCOCC2)ccc2c1oc(=O)c1ccccc12 (centres undefined)	0.7	-0.04
104	O=C(CSc1nnc(-c2ccccn2)n1Cc1ccccc1)Nc1ccc2c(c1)OCO2	0.52	0.04
105	COc1ccccc1-c1ccc(=O)n(CC(=O)NCc2cccs2)n1	0.73	-0.56
106	Cc1ccc(C)c(-n2cc(CNCCc3cnccn3)c(-c3ccccc3)n2)c1	0.05	0.16
107	CC1CCN(S(=O)(=O)c2ccc3[nH]c(=O)c(=O)[nH]c3c2)CC1	0.55	-0.15
108	COc1cc(/C=N/NC(N)=O)ccc1OCC(=O)N1C(C)CCCC1C (centres undefined)	0.04	1.28
109	CC1=NN(C(N)=S)C(=O)C1N=Nc1ccc(Br)cc1 (centres undefined)	1.12	-0.03
110	Nc1nc(SCc2ccccc2)[nH]c(=O)c1-c1ccccc1	0.94	-1
111	Cc1[nH]nc2c1C(c1cccnc1)N(c1ccc(Br)cc1)C2=O (centres undefined)	0.47	1.59
112	CNC(=S)N1CCN(c2nc(-c3cccc(OC)c3)cs2)CC1	0.89	-0.12
113	C=CCNC(=O)c1ccccc1NC(=O)C1CCN(S(=O)(=O)c2ccc(SC)cc2)CC1	0.35	3.09
